Sa RN4220 lethal – growth inhibition of S. aureus RN4220, primary screen, OD600; 16 h; inhibition, % (test concentration not listed); 330,000 tested, 0.33% active;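 active = z-score of -3 or lower and OD600 up to 0.18 on both plates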;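 also: plate controls were untreated cells for no effect and reference antibiotic for full effect; stock transfer was 100 nL into about 80 µL; one replicate is shown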
Mtb hypoxia inh – PubChem AID 1159583. M. tuberculosis hypoxia-regulated fluorescent reporter, fluorescence. fluorescence inhibition, % (no concentration beside the values). 300,000 tested, 0.1% active;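 active = 35 to 45% if threefold the growth effect, above 45% if 1.5-fold the growth effect; inactive = the rest, general growth blockers included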;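 also: wells of about 50 µL received 100 nL stock; 0% = vehicle wells and 100% = reference inhibitor wells; whole bacteria with a GFP reporter of the hypoxia response; strong numbers were not always called active; many hits fall short of the cut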
Bead autofluor – compound fluorescence in toxin protease inhibitor counterscreen | compound autofluorescence counterscreen, microsphere flow cytometry; hits give high values | fluorescence intensity (test concentration not listed) | 360,000 tested, 3.1% active;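 active = at least 3 SD above the mean of all compounds, about 16000 in these data; inconclusive = too few beads counted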;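 also: 100 nL of 1 mM stock went into each well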
PrP 5UTR inh – inhibition of PrP 5' UTR reporter expression; inhibition, % (test concentration not listed); cell-based PrP 5' UTR mRNA reporter, plate reader; 340,000 tested, 0.35% active;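 active = every replicate at 50% or more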;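 also: 0 = median of the neutral control wells; tested in H4 reporter cells; numbers are from one replicate; inactives centre near -14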
BJeLR viability – MLPCN primary cell-based screen for lethality selective to Ras in HRASV12 cells; inhibition, % (concentration not given with the values); BJeLR (HRASV12) viability, CellTiter-Glo ATP luminescence, 48 h; reference of the scale not given here; 300,000 tested, 0.17% active; AID 1554, 2009;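 active = replicate mean above 50%; inconclusive = above 50% but judged a plate artefact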;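 also: 50 nL library stock added to about 25 µL; numbers are from one replicate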
Sa ugtP lethal – growth inhibition of ugtP-null S. aureus, primary screen, RN4220 ugtP deletion, OD600 | growth inhibition, % (concentration not given with the values) | 330,000 tested, 0.54% active | 16 h; some inactives read as strong as hits;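 active = z-score under -3 and OD600 up to 0.15 on both plates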;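 also: plate controls were untreated wells for no effect and antibiotic for full effect; wells of about 80 µL received 100 nL stock; the first replicate is given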
Mtb hypoxia inh growth – recorded beside Mtb hypoxia inh, whose call it bears; growth inhibition, %; measured here: M. tuberculosis growth (absorbance);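 0% = vehicle and 100% = reference antibiotic; read after six days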
* marks the source's active call; other numbers are inactive results; ? = inconclusive; . = no result given; & = joins results of further samples. Rows were taken by chance; any-hit rate near 4.1%.

Start of the data: the first 4 records, to show the layout:
SMILES | Sa RN4220 lethal | Mtb hypoxia inh | Mtb hypoxia inh growth | Bead autofluor | PrP 5UTR inh | BJeLR viability | Sa ugtP lethal
COc1cc(OC)c(NC(=O)Cc2ccc(OC)c(S(=O)(=O)N3CCOCC3)c2)cc1Cl | 1.2 | -3 | 9 | 5655 | -7 | -10 | -3
CCOC(=O)COc1ccc2c3c(c(=O)oc2c1)CCCC3 | 1.3 | 1 | 8 | 4804 | -6 | 1 | 6
CN(C(=O)c1c[nH]c(=O)cc1C(F)(F)F)c1ccc(Cl)c(Cl)c1 | 3.2 | 13 | 0 | 5520 | -14 | 1 | 2
CCCN(CCC)C(=O)C1CCN(c2cc(C)nc3c(-c4ccc(OC)c(OC)c4)c(C)nn23)CC1 | -1.7 | 1 | 12 | 5335 | -16 | 3 | 16

This part in full, previewed entries included:
SMILES | Sa RN4220 lethal | Mtb hypoxia inh | Mtb hypoxia inh growth | Bead autofluor | PrP 5UTR inh | BJeLR viability | Sa ugtP lethal
COc1cc(OC)c(NC(=O)Cc2ccc(OC)c(S(=O)(=O)N3CCOCC3)c2)cc1Cl | 1.2 | -3 | 9 | 5655 | -7 | -10 | -3
CCOC(=O)COc1ccc2c3c(c(=O)oc2c1)CCCC3 | 1.3 | 1 | 8 | 4804 | -6 | 1 | 6
CN(C(=O)c1c[nH]c(=O)cc1C(F)(F)F)c1ccc(Cl)c(Cl)c1 | 3.2 | 13 | 0 | 5520 | -14 | 1 | 2
CCCN(CCC)C(=O)C1CCN(c2cc(C)nc3c(-c4ccc(OC)c(OC)c4)c(C)nn23)CC1 | -1.7 | 1 | 12 | 5335 | -16 | 3 | 16
Cc1ccc(C(=O)N/C(=C\c2ccc(Cl)cc2)C(=O)NCCCN2CCOCC2)cc1 | 3.5 | 10 | 4 | 10702 | -25 | -1 | 6
CCOC(=O)C1=NN(c2ccc(Cl)cc2)C(c2ccccc2)CC1=O (configuration not stated) | 0.2 | 3 | 6 | 9567 | 4 | -13 | 5
C=CCOc1ccc(CNc2nn[nH]n2)cc1OC | -17 | 4 | 12 | 2933 | -14 | -3 | -4
COc1cccc(-c2c(C(=O)N/N=C/c3ccsc3)nnn2-c2nonc2N)c1 | . | . | . | 5881 | -3 | -2 | .
Cc1ccc(-c2ccc(=O)n(CC(=O)NCCC(C)C)n2)cc1 | 2.6 | 7 | 2 | 2981 | -4 | 7 | 8
O=C(CSc1nnc(SCc2ccccc2Cl)s1)NN=Cc1ccc(C(=O)O)cc1 | -0.7 | 1 | -3 | . | . | . | 6
Cc1nnsc1S(=O)c1ccc(Cl)c(Cl)c1 (configuration not stated) | 4.7 | 19 | 2 | 4015 | -3 | -8 | 1
CC(=O)Nc1ccc(N=C(C2=C(O)c3ccccc3C2=O)c2ccccc2)cc1 | 6.6 | -4 | -10 | 2442 | -57 | -11 | -5
CCN(CC)C(=O)COc1ccc(S(=O)(=O)N2CCOCC2)cc1 | 0.6 | 8 | 4 | 16440* | -22 | 1 | 5
Cc1ccc(NC(=O)CN2CCC(NC(=O)C3CCCCC3)CC2)c(Br)c1 | 1.1 | 14 | 11 | 2026 | -8 | -9 | 1
Cc1cc(C(=O)N(C)Cc2ccc(Br)cc2)no1 | 7.9 | . | . | 3426 | -12 | -8 | 11
NC(=O)CSc1ncc(-c2ccc([N+](=O)[O-])cc2)[nH]1 | 8.3 | 0 | 4 | 4274 | -11 | -4 | 2
CNC(=O)/C(C#N)=C/c1ccc(OCCOc2ccccc2)cc1 | 2.7 | 15 | 2 | 3757 | -25 | -2 | 4
COc1ccc(-c2cc(C(=O)NCC3CCCO3)c3ccccc3n2)c(OC)c1 (configuration not stated) | 0.6 | -6 | 6 | 3825 | -13 | -3 | 13
COc1ccc2[nH]c3c(c2c1)CCN1C(=O)C(CC(=O)NCc2ccc(OC)c(OC)c2)C[C@H](C(=O)N2CCOCC2)[C@@]31CCC1CCCC1 (some centres not stated) | 5.9 | -20 | -18 | 2873 | -7 | . | -2
NC1(C(=O)O)CC1 | 6.5 | 4 | 14 | 5313 | -30 | 7 | 0
NNC(=O)c1cnn(-c2ccccc2)c1-n1cccc1 | -1.4 | -2 | 11 | 4429 | -18 | -29 | 1
CCOC(=O)C1=CN2CCCCC2CC1=O (configuration not stated) | 7.6 | 12 | 11 | . | . | . | 0
COc1ccc(CCNC(=O)C2CC(c3cccc(F)c3)=NO2)cc1 (configuration not stated) | 10 | 15 | 6 | 3624 | -12 | 3 | -1
COC(=O)c1sccc1NC(=O)CSc1ccccc1NS(=O)(=O)c1ccccc1Cl | 13 | 4 | -3 | 3743 | -2 | 0 | 39
Cn1cnnc1SCc1ccc(C(=O)NN)cc1 | 0.9 | 13 | 7 | 3577 | -22 | 4 | 0
Further results:
SMILES | Sa RN4220 lethal | Mtb hypoxia inh | Mtb hypoxia inh growth | Bead autofluor | PrP 5UTR inh | BJeLR viability | Sa ugtP lethal
O=C(COc1cccc(NC(=O)c2ccco2)c1)c1ccc(F)cc1 | 0.9 | . | . | 4669 | -13 | . | -1
COc1ccc(CCN2C(=O)CC(C(N)=O)SC2=Nc2ccccc2)cc1 (configuration not stated) | 1.9 | -20 | -2 | 3867 | -10 | -2 | -6
COC(=O)c1cc(C(=O)OCC(=O)N2c3ccccc3NC(=O)C2(C)C)cc([N+](=O)[O-])c1 | 4.7 | 6 | -2 | 1921 | -10 | -3 | -2
COCCCNc1oc(-c2ccccc2OC)nc1C#N | 6.0 | 7 | 8 | 8086 | -11 | 5 | 12
COCCn1c(SCC(=O)NCc2ccco2)nnc1C(C)C | 1.5 | 15 | 7 | 2746 | -8 | -1 | 4
COc1ccccc1NC(=O)c1ccc(N2CC3CC(C2)c2cccc(=O)n2C3)c(NC(=O)c2cccnc2)c1 (configuration not stated) | 1.1 | 11 | 2 | 5589 | -14 | 9 | 2
COCCCn1c(=O)c2ccccc2n(CC(=O)NC2CCCC2)c1=O | 3.5 | 15 | 2 | 4003 | -17 | 2 | -2
COc1ccc(Cl)c(Cn2c(NCc3ccccn3)nc3c2c(=O)n(C)c(=O)n3C)c1 | -4.2 | . | . | 2808 | -7 | 7 | -8
Cc1ccc(C(=O)COC(=O)CNC(=O)CN2C(=O)c3ccccc3C2=O)cc1 | 1.5 | 9 | 4 | 2504 | -17 | -18 | 0
Nc1c(-c2n[nH]c(=S)n2-c2ccc(Cl)cc2Cl)cnn1-c1ccccc1 | 2.4 | 0 | -2 | 3681 | -15 | -1 | -2
COc1ccc(CN(C)C(=O)COc2cccc(-n3cnnn3)c2)cc1OC | -1.7 | 0 | 2 | 6703 | -8 | . | -2
C=CCn1c(SCC(=O)c2ccc(CNC(C)=O)o2)nc2ccccc2c1=O | -1.6 | . | . | 2368 | -33 | -4 | -12
Cc1onc(-c2ccc(Cl)cc2)c1-c1ccnc(SCC(=O)Nc2cc(Cl)cc(Cl)c2)n1 | -5.8 | 12 | 3 | 4225 | 3 | 11 | 22
COC(=O)C1=CC(C(=O)OC)C2C3=C(C(=O)[C@]2(C)NC(=O)c2ccccc2)C(C)n2c(=O)n(C)c(=O)n2C3C1 (some centres not stated) | -1.5 | -3 | -3 | . | . | . | 2
Cc1cccc(C(=O)OC2CCCN(C)C2)c1C (configuration not stated) | -1.0 | 7 | 9 | 3644 | -4 | 14 | 14
Cc1cccc(C(=O)N2CCC(=O)N(C(COCc3cccc(Cl)c3)Cc3ccccc3)CC2)c1 (configuration not stated) | 1.5 | -8 | -3 | 4183 | 4 | -1 | 4
CCC(Sc1nc2c(cnn2-c2ccccc2)c(=O)[nH]1)C(=O)OC (configuration not stated) | 3.5 | 4 | 10 | 6412 | -1 | -2 | -13
O=C(COC(=O)c1ccccc1Nc1ccccc1)NCc1ccco1 | -9.5 | . | . | 2950 | -15 | 8 | 9
O=C(c1cccc(Cl)c1)N1CCN(c2ccccn2)CC1 | 3.6 | . | . | 3634 | 2 | 1 | 6
O=C(CSc1n[nH]c(-c2cccs2)n1)N1CCN(S(=O)(=O)c2ccc3ccccc3c2)CC1 | 4.8 | 0 | 6 | ? | -3 | -8 | 1
CCOc1ccccc1CN1CCNC(=O)C1CC(=O)N(C)Cc1nonc1C (configuration not stated) | . | . | . | ? | -20 | 1 | .
NC(=O)C1CCN(C(=O)C2CC(=O)N(Cc3ccccc3)C2)CC1 (configuration not stated) | 5.0 | 14 | 3 | 3832 | -7 | . | 5
CCOc1ccccc1C(=O)Oc1cc(C)[nH]c(=O)c1[N+](=O)[O-] | 0.3 | 7 | -6 | 5728 | -6 | 2 | 5
O=C1N=C(N2CCCCC2)SC1=C1CCCCC1 | -15 | . | . | 2914 | -48 | 0 | -12
C=CCn1c(SCC(=O)NCCOC)nc2scc(-c3ccco3)c2c1=O | -0.3 | . | . | 4442 | -16 | -1 | -2

As entered above.
PrP 5UTR inh with COC(=O)c1sccc1NC(=O)CSc1ccccc1NS(=O)(=O)c1ccccc1Cl is entered as -2
PrP 5UTR inh with Cc1ccc(NC(=O)CN2CCC(NC(=O)C3CCCCC3)CC2)c(Br)c1 is entered as -8

Other results follow:
SMILES | Sa RN4220 lethal | Mtb hypoxia inh | Mtb hypoxia inh growth | Bead autofluor | PrP 5UTR inh | BJeLR viability | Sa ugtP lethal
Cc1[nH]c2ccc(C(=O)N3CCCC3)cc2c1C | 0.1 | 9 | 6 | 4162 | -17 | 10 | 3
CCc1ccccc1NS(=O)(=O)c1ccc2[nH]cc(C(=O)NCc3ccco3)c(=O)c2c1 | -0.3 | . | . | 3408 | -26 | 6 | 6
COC(=O)[C@@]12CCCCN1C(c1ccc(-c3ccc(F)cc3)cc1)C1C(=O)N(C)C(=O)C12 (some centres not stated) | 0.6&-9.0 | 9&5 | 1&9 | . | . | . | 1&2
CCOC(=O)Cn1ccc(NC(=O)COc2ccc(F)cc2F)n1 | 4.9 | 16 | 4 | 5686 | -15 | -5 | 4
CCn1c(O)c(/C=N/N2CCOCC2)c(=O)n(CC)c1=S | -2.1 | -20 | 12 | 2018 | 9 | 2 | 5
Cc1ccc(-c2csc(/C(C#N)=C(\O)CN3CCN(C(=O)c4ccco4)CC3)n2)cc1 | . | . | . | 3316 | -16 | -2 | .
CCOC(=O)c1c(NC(=O)COc2cccc3c2CCN(CC)C3=O)sc2c1CCC2 | 1.8 | 7 | 5 | 2008 | -16 | -16 | -18
O=C(CN1CCN(S(=O)(=O)c2ccc(Br)cc2)CC1)Nc1ccc2c(c1)OCO2 | -1.0 | . | . | 5890 | -12 | -2 | 3
O=C(Nc1cccc([N+](=O)[O-])c1)c1ccc2snnc2c1 | 2.4 | 6 | -2 | 5693 | -7 | 3 | 5
CCC(C)Nc1nc(-c2cccc(OC)c2O)nc2ccccc12 (configuration not stated) | -18 | . | . | 3087 | -16 | 0 | -19
Cc1noc(C)c1NC(=O)N(C)C[C@@H]1Oc2ccc(NS(=O)(=O)c3c(C)noc3C)cc2C(=O)N([C@H](C)CO)C[C@H]1C | -9.3 | 11 | 5 | 2863 | -2 | . | 4
COc1ccc(C(=O)Nc2ccccc2N2CCOCC2)cc1Br | 1.6 | 0 | 11 | 4275 | -11 | -5 | -1
O=C(CSc1nnc(-c2ccncc2)o1)NC1CCCCC1 | 0.5 | 12 | 9 | 2552 | -1 | -6 | 5
Cc1ccc(C(=O)NN=Cc2ccc3c(c2)OCO3)o1 | -1.3 | 1 | -9 | . | . | . | 2
CC(C)(C)n1ncc2c(=O)n(Cc3cc(F)c(Cl)cc3Cl)cnc21 | -7.6 | 3 | 8 | 3772 | -13 | . | -10
Cc1nc2sc3c(c2c(=O)n1NC(=O)CCBr)CCCC3 | 16 | 12 | 6 | 3364 | -52 | 6 | -2
Cc1ccc(Cc2cnc(NC(=O)C3=NCCN3)s2)cc1 | 4.4 | 0 | 7 | . | . | 10 | 1
Cc1ccsc1C(=O)NC1CCCCC1C (configuration not stated) | 5.0 | -2 | 2 | 3506 | -45 | . | 8
COc1cc(C=NNC(=O)COc2ccc([N+](=O)[O-])cc2)ccc1OCC(=O)N1CCOCC1 | -2.7 | 3 | 0 | . | . | . | -4
O=C(Nc1cccc(F)c1)c1ccc(S(=O)(=O)N2CCCCC2)cc1 | -0.5 | -1 | 14 | 5217 | 2 | 1 | -11
Cn1c(O)c(C(=O)c2ccccc2F)c(=O)n(C)c1=O | 0.4 | -8 | 2 | 9409 | -24 | -4 | -2
CSc1ccccc1NC(=O)COc1ccc(Cl)cc1Cl | 3.0 | 0 | -2 | 2146 | -27 | -3 | 11
Cn1c(CC(=O)Nc2ccccc2)cc2ccccc21 | 0.3 | 0 | -4 | ? | 7 | -5 | 7
O=C1/C(=C/c2cccnc2)SC(=S)N1Nc1ccccc1 | 2.6 | 7 | -8 | 5734 | . | 4 | 3
